Mtb H37Rv: Mycobacterium tuberculosis H37Rv growth inhibition, cell based, confirmatory dose response (AID 1949) | M. tuberculosis H37Rv growth inhibition | most inactive calls were filed without a number and no value below 0 was filed | 100,000 compounds, 1.6% hits | inhibition, % at 10 µg/mL; hits with a dose series show IC50 in µg/mL;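 active = confirmed in a dose series; inconclusive = about 50% or more but not retested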;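 also: bacteria grown 7 days with compound before Alamar blue readout; 0% = untreated bacteria and 100% = reference antibiotic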
An asterisk follows results filed as active; i = inactive; u = inconclusive.

SMILES	Mtb H37Rv
Cc1ccc(Cl)cc1N(Cc1ccc(C(=O)N2CCOCC2)cc1)S(=O)(=O)c1ccccc1	0%
CCOc1ccccc1-c1cc(C(=O)O)c2cc(Br)ccc2n1	i
CCOc1ccccc1NC(=S)NC(=O)c1ccc(Cl)cc1Cl	4%
O=C(NCCSCc1c(Cl)cccc1Cl)c1ccc([N+](=O)[O-])cc1	i
O=C(NCCCc1ccccc1)c1cccs1	i
CCOC(=O)c1c(NC(=O)C(F)(F)F)sc2c1CCN(C(=O)OCC)C2	i
CCCOc1ccc(S(=O)(=O)NCc2ccco2)cc1	1%
O=C(NC(=S)Nc1nc(-c2ccc3ccccc3c2)cs1)c1ccc(Cl)cc1Cl	i
COC(=O)c1cc([N+](=O)[O-])c(C(=O)OC)cc1N1CCOCC1	i
CCOC(=O)c1c(C)n(C)c2c1cc(OC(=O)c1ccc(N3C(=O)CCC3=O)cc1)c1ccccc12	i
O=C(c1ncc[nH]1)c1ccccc1C(=O)N1CCOCC1	i
COC(=O)COc1ccccc1OCC(=O)OC	i
CC(C)Cn1c(C23CC4CC(CC(C4)C2)C3)n[nH]c1=S	1%
CCS(=O)(=O)Nc1ccc(C)cc1NS(=O)(=O)CC	i
CCOC(=O)c1c(NC(=O)COc2cc(C)ccc2C)sc2c1CCCC2	4%
COc1cc(C(=O)N2CCC(C(=O)Nc3ccccc3C(F)(F)F)CC2)cc(OC)c1OC	i
CCOC(=O)c1c(NC(=O)Cc2ccc(OC)cc2)sc(C(=O)NC2CCCCC2)c1C	i
COc1ccccc1C(=O)NC(C)CCc1ccccc1 (stereo unspecified)	i
Cc1c(CC(=O)O)c(=O)oc2cc(OC/C=C/c3ccccc3)ccc12	i
COc1cc(C2C(C(=O)Nc3ccccn3)=C(C)NC3=C2C(=O)CC(C)(C)C3)cc(OC)c1OC (stereo unspecified)	i
Cc1cc(C)n(CC(O)COc2ccc3ccccc3c2Cl)n1 (stereo unspecified)	i
COc1cccc(OC)c1C(=O)Nc1ncn[nH]1	i
CCc1cc2c(=O)c(-c3nc4ccccc4s3)coc2c(CN2CCN(CCO)CC2)c1O	3%
O=C(CCN1C(=O)C2C3CCC(C3)C2C1=O)Nc1ccc(Br)cc1Cl (stereo unspecified)	i
C=CCN(CC=C)S(=O)(=O)c1ccc(OC)cc1	i
Nc1ccc2c(c1)C(=O)N(C1CCCCC1)C2=O	7%
NC(=O)N=Nc1c(O)[nH]c2ccc(Br)cc12	i
Fc1ccc(NC(=S)N2CCOCC2)cc1	4%
COC(=O)c1ccccc1NC(=O)Cn1c(C)ccc1C	i
O=C(Nc1ccc(F)c(Cl)c1)C1CCN(C(=O)c2ccc(Cl)cc2Cl)CC1	2%
CCOC(=O)c1ccc(NC(=S)NNC(=O)CSCc2ccccc2F)cc1	i
O=C(NCCc1nc(-c2ccccc2)cs1)NC1(c2ccccc2)CC1	i
c1ccc(OCCOCCN2CCN(C(c3ccccc3)c3ccccc3)CC2)cc1	1%
Cc1scc(C(=O)NNC(=S)Nc2ccc(F)cc2F)c1-c1ccccc1	2%
COc1ccc(-n2c(SCC(=O)Nc3cccc(Cl)c3Cl)nnc2-c2ccncc2)cc1	i
Cc1ccc(SCCNC(=O)c2ccc(N(C)S(C)(=O)=O)cc2)cc1	i
CCOCC(=O)Nc1ccccc1C(N)=O	i
COC(=O)c1ccc(Cl)c(NC(=O)c2ccco2)c1	i
O=C(CCN1CCCCC1)NCc1ccccc1	i
Cc1cc(S(=O)(=O)NCc2ccccn2)c(Cl)cc1Cl	i

Laid out differently: 3 of the compounds above
COc1ccc(-n2c(SCC(=O)Nc3cccc(Cl)c3Cl)nnc2-c2ccncc2)cc1
  Mtb H37Rv: i

Cc1ccc(SCCNC(=O)c2ccc(N(C)S(C)(=O)=O)cc2)cc1
  Mtb H37Rv: i

CCOCC(=O)Nc1ccccc1C(N)=O
  Mtb H37Rv: i

Later entries
SMILES	Mtb H37Rv
CC(C)(C)c1ccccc1NC(=O)c1ccc(Cl)cc1[N+](=O)[O-]	39%
CC1CCN(c2ccc(NC(=O)c3ccc([N+](=O)[O-])o3)cc2)CC1	0.31µg/mL*
Cc1ccc(C(=O)NNC(=S)Nc2cccc3ccccc23)s1	26%
CC(=O)NC1C(=O)N(CCc2ccccc2)c2ccc(C)cc21 (stereo unspecified)	i
CCN1C(=O)C(CC(=O)Nc2ccc(OC)cc2)N(Cc2ccco2)C1=S (stereo unspecified)	i
CC1=C(C(=O)OCC2CCCO2)C(c2ccc(OC(C)C)cc2)NC(=O)N1 (stereo unspecified)	i
COc1ccc2c(c1OC)C(=O)OC2CC(=O)c1ccc(N(C)C)cc1 (stereo unspecified)	2%
CCc1cc2c(=O)c(-c3nc4ccccc4n3C)c(CC)oc2cc1OC(=O)C(C)(C)C	32%
N#CCc1ccc(NS(=O)(=O)c2ccc3ccccc3c2)cc1	i
COc1ccc(N2CCN(C3CC(=O)N(c4ccc(C(=O)O)cc4)C3=O)CC2)cc1 (stereo unspecified)	i
Cc1ccccc1C(=O)NNC(=O)COc1c(C)cc(Br)cc1C	i
COc1cc(OC)cc(C(=O)Nc2ccccc2C(=O)NCCc2ccccc2)c1	i
COc1cc(NS(=O)(=O)c2ccc(NC(=O)c3cccc4ccccc34)cc2)ncn1	i
CCN(CC)CCCN1C(=O)C(O)=C(C(=O)c2ccc(C)o2)C1c1cccnc1 (stereo unspecified)	i
Cc1ccc(CNC(=O)C2CCN(C(=O)c3ccc(C)cc3)CC2)cc1	i
COc1ccc(Cl)cc1N(CC(=O)NCCSc1ccc(Cl)cc1)S(C)(=O)=O	i
N/C(=N\OC(=O)CCC1CCCCC1)c1ccc([N+](=O)[O-])cc1	i
CCOc1ccc(N2C(=O)CC(NCCNC(=O)c3ccc(Cl)cc3)C2=O)cc1 (stereo unspecified)	2%
CCc1cccc(C)c1NC(=O)C(C)Oc1ccc(Cl)cc1Cl (stereo unspecified)	i
Cc1cc(OCC(=O)Nc2ccncc2)ccc1[N+](=O)[O-]	2%
CCCN1C(=O)/C(=C\c2ccc3c(c2)OCO3)SC1=S	i
Cc1ccc(N2C(=O)C(Cl)=C(N(C)c3ccccc3)C2=O)cc1	i
COc1ccc(-c2cc(-c3ccc(Cl)cc3)n3ncnc3n2)cc1	i
CC(=O)c1cccc(NC2=NCC(C)(C)S2)c1	i
Cc1ccccc1NC(=O)CCCCC(=O)Nc1ccccc1C	i
CC1=C(C(=O)Nc2ccccc2)C(c2ccccc2)NC(=S)N1 (stereo unspecified)	i
O=C(O)CCCC(=O)Nc1nc2nccc(-c3ccccc3)n2n1	i
CS(=O)(=O)N(CC(=O)Nc1ccccc1Br)c1cc(Cl)ccc1Cl	i
O=C(CSc1nc2ccccc2[nH]1)Nc1cccc(O)c1	i
Cc1ccc(NC(=O)CC2NCCNC2=O)cc1 (stereo unspecified)	i
COc1ccc(S(=O)(=O)N2CCN(c3cc(Cl)ccc3C)CC2)cc1C	i
Cc1cc(Cl)ccc1OC(C)C(=O)Nc1ccccc1F (stereo unspecified)	i
COc1ccc(N(C(C)C(=O)Nc2ccc(Br)c(Cl)c2)S(C)(=O)=O)cc1 (stereo unspecified)	i
Cc1cc(=O)[nH]c(SCC(=O)N2CCC(C(N)=O)CC2)n1	i
COc1ccc(OC)c(NC(=O)CN(c2ccc(Cl)c(C(F)(F)F)c2)S(C)(=O)=O)c1	i
CC(=O)c1cn(CC(=O)NC(C)C)c2ccccc12	i
Cc1ccc(/C(=N\C(=S)N2CCOCC2)Nc2ccccc2)cc1	1%
O=C(Nc1ccccc1Cl)C1CCN(C(=O)c2ccccc2)CC1	i
O=C(c1ccccc1-c1ccccc1)N1CCOCC1	0%
c1ccc(CSc2nnc(-c3ccco3)n2Cc2ccccc2)cc1	3%
CCC(c1ccccc1)c1nnc(NC(=O)c2ccccc2Br)s1 (stereo unspecified)	i
O=C1N(c2ccccc2)C(c2ccc(Br)cc2)C12CCCCC2 (stereo unspecified)	i
Cc1ccccc1C(=O)ON1C(=O)c2cccc3cccc(c23)C1=O	1%
O=Cc1cc(Br)ccc1OCc1ccc([N+](=O)[O-])cc1	9%
O=c1c2ccccc2nc(CSc2ncnc3ccccc23)n1-c1ccccc1F	3%
CCOC(=O)c1ccc(-n2cnnn2)cc1	5%
CC1CC(C)CN(CCOc2ccc(Br)cc2)C1 (stereo unspecified)	i
O=C(NC(=S)Nc1cc(Cl)ccc1Oc1ccccc1)c1ccccc1	i
CC1(NC(=O)CN2CCCCC2)CCCCC1c1ccc(O)cc1 (stereo unspecified)	3%
COc1ccc([N+](=O)[O-])cc1NC(=O)C1(c2ccc(OC)c(OC)c2)CCCCC1	i
CC1=C(C(=O)OC(C)C)C(c2cccnc2)n2ncnc2N1 (stereo unspecified)	i
O=S(=O)(Nc1ccc(Cl)c(C(F)(F)F)c1)c1cc(Cl)ccc1Cl	i
Cc1ccc(Nc2nc(N3CCOCC3)nc(=O)[nH]2)cc1C	i
N#Cc1nc(-c2ccc(Cl)cc2)oc1NCc1ccco1	i
CCOc1ccc(C(=O)Nc2ccc(CN3CCOCC3)cc2)cc1Br	i
COC(=O)c1sc(N2C(=O)C(=O)/C(=C(/O)c3ccccc3)C2c2ccccc2)nc1C (stereo unspecified)	i

(list continues)
SMILES	Mtb H37Rv
O=C(NC(=S)NC12CC3CC(CC(C3)C1)C2)c1cc2ccccc2o1	i
Fc1ccc(NC(=S)Nc2cccnc2)c(Cl)c1	i
C=CCn1nnnc1SCC(=O)Nc1ccccc1C(=O)OC	0%
COc1ccc(Br)cc1CN1CCN(C(=O)c2ccncc2)CC1	i
Oc1cccc(C(O)CNCc2ccc(OCc3ccc(Cl)cc3Cl)cc2)c1 (stereo unspecified)	29%
COc1ccc(OC)c(C2C3=C(N=C4SCC(=O)N42)c2ccccc2CC3)c1 (stereo unspecified)	i
Cc1cc(C)c(NC(=O)c2ccc(CN(c3ccccc3)S(=O)(=O)c3ccccc3)cc2)c(C)c1	i
COc1ccc(OCC#CCSC#N)cc1	i
O=C(OCc1ccc([N+](=O)[O-])cc1)c1ccc(-c2nnc(-c3ccccc3)o2)cc1	i
Cc1ccc(NC(=O)CC2COc3ccccc3O2)cc1Cl (stereo unspecified)	1.6µg/mL*
Cc1sc2ncnc(NCc3ccco3)c2c1C	i
CC1(C)CC(=O)C2=C(C1)NCN(Cc1ccc3c(c1)OCO3)C2	i
CCn1c(SCc2ccccc2)nc2cc(OC)c(OC)cc2c1=O	u
O=C(N/N=C/c1c[nH]c2ccccc12)c1cc(-c2ccc3ccccc3c2)n[nH]1	i
Cc1cc(C)cc(NC(=O)C(=O)NC2CCCCCC2)c1	i
Cc1ccc(F)c(NC(=O)c2c(-c3ccccc3Cl)noc2C)c1	4%

Next part, starting with the last 2 of the part before.
SMILES	Mtb H37Rv
Cc1cc(C)cc(NC(=O)C(=O)NC2CCCCCC2)c1	i
Cc1ccc(F)c(NC(=O)c2c(-c3ccccc3Cl)noc2C)c1	4%
Cc1c(NC(=O)c2ccc(Cl)c(S(=O)(=O)N3CCOCC3)c2)cccc1[N+](=O)[O-]	i
COc1ccc(CC(=O)O/N=C(\N)Cc2ccc(OC)c(OC)c2)cc1	i
COC(=O)c1sc2cc(NC(=S)NCC(C)C)ccc2c1Cl	1%
COc1cc(C2c3c(oc4ccccc4c3=O)C(=O)N2c2nccs2)ccc1OCc1ccccc1 (stereo unspecified)	i
COc1ccc(-c2cc(-c3ccccc3)nc(SCc3ccncc3)c2C#N)cc1	1%
CCCNC(=O)C1CN(S(=O)(=O)c2ccccc2)CCN1S(=O)(=O)c1ccccc1 (stereo unspecified)	i
O=C(Nc1ccccc1)c1ccc(C(=O)c2ccccc2)cc1	i
O=C(C1CCCO1)N1CCN(S(=O)(=O)c2cccc3nsnc23)CC1 (stereo unspecified)	i

Grouped by structure, the compounds so far with a COOH group (four)
SMILES	Mtb H37Rv
CCOc1ccccc1-c1cc(C(=O)O)c2cc(Br)ccc2n1	i
Cc1c(CC(=O)O)c(=O)oc2cc(OC/C=C/c3ccccc3)ccc12	i
COc1ccc(N2CCN(C3CC(=O)N(c4ccc(C(=O)O)cc4)C3=O)CC2)cc1 (stereo unspecified)	i
O=C(O)CCCC(=O)Nc1nc2nccc(-c3ccccc3)n2n1	i

Next part.
SMILES	Mtb H37Rv
COc1ccc(Cl)cc1NC(=O)c1ccc(C)o1	15%
COc1ccc(C(=O)N2CCN(C(=O)COc3ccc4ccccc4c3)CC2)cc1	i
CC(=O)Nc1ccc(NC(=O)CN(c2ccc(C)cc2)S(=O)(=O)c2ccc(F)cc2)cc1	i
CC(=O)N1C(=O)C(=O)c2cc(Cl)ccc21	i
Cc1ccccc1CSc1nsc(SCc2ccccc2C)c1C#N	1%
Cn1c(SCc2ccc(Br)cc2)nnc1-c1ccc(Cl)cc1	2%
O=C(O)C1CC=CCC1C(=O)Nc1ccc(Cc2ccncc2)cc1 (stereo unspecified)	i
CCC(C)NC(=O)C(=O)Nc1ccccc1Cl (stereo unspecified)	i
COc1ccc(-c2onc(C(F)(F)F)c2Oc2cnn(-c3ccccc3)c2)c(O)c1	20%
O=C(CCc1ccccc1)Nc1ccc(CCC(=O)N2CCCC2)cc1	i
CC(C)(C)Cc1nc2ccccc2n1CCc1ccccc1	23%
COc1ccc(CNC(=O)CN(C)S(=O)(=O)c2cc(C)ccc2OC)cc1	i
Cc1cc(C)c(OCC(=O)Nc2ccccc2C(F)(F)F)c(Cl)c1	i
Cc1ccc(OCCCCn2ccnc2C)c(C)c1	i

Source: PubChem

These rows are one share of the data; the hit share may differ from the screen's.
